# Vif TR-FRET: inhibitors of Vif binding to APOBEC3G peptide, primary screen, biochemical, TR-FRET, GST-Vif 1-94, biotin-A3G peptide, dose response retest (AID 1117319); TR-FRET GST-Vif / biotin-A3G peptide binding; higher % means a stronger effect; test concentration not given here; strong numbers were not always called active; one-dose inhibition, %; IC50 in µM for titrated hits; 0.57% of 260,000 active;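 active = above the screen mean plus three standard deviations and confirmed in dose response; inconclusive = results disagree or hit not tested in dose response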;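 note: Vif residues 1-94 fused to GST binding biotinylated APOBEC3G peptide 110-148; 0% = full assay without inhibitor and 100% = GST in place of GST-Vif; retest series ran down from 100 µM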
# T cruzi inh: T. cruzi replication inhibition; T. cruzi beta-gal in NIH3T3, luminescence, 90 h; inhibition, % (test concentration not listed); 1.4% of 300,000 active;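 active = mean inhibition across valid replicates above about 55%, limit read from the data; inconclusive = mean below that limit but half or more replicates reach it; inactive = mean below it, under half of replicates reach it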;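 note: signal also drops with host cell toxicity which is not excluded here; 0% = plate median of DMSO wells and 100% = zero luminescence signal; higher percent means less beta-gal luminescence so fewer parasites; stock transfer was 50 nL into about 50 µL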
# MLL AF4-AF9 inh: MLL-AF4/AF9 protein interaction inhibition; P42568; AlphaScreen, biotin-AF4 peptide binding to FLAG-AF9; inhibition, % at 10 µM; 0.47% of 350,000 active;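 active = every replicate reaching a set inhibition limit, whatever the replicate mean, cut at about 25% in these data; inconclusive = mean inhibition reaches that limit but some replicates miss it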;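 note: 0% = plate neutral control median and 100% = total signal loss; the record names both 10 and 1 µM as test concentration; the first replicate is given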
# Target sequence (P42568 whole entry, looked up): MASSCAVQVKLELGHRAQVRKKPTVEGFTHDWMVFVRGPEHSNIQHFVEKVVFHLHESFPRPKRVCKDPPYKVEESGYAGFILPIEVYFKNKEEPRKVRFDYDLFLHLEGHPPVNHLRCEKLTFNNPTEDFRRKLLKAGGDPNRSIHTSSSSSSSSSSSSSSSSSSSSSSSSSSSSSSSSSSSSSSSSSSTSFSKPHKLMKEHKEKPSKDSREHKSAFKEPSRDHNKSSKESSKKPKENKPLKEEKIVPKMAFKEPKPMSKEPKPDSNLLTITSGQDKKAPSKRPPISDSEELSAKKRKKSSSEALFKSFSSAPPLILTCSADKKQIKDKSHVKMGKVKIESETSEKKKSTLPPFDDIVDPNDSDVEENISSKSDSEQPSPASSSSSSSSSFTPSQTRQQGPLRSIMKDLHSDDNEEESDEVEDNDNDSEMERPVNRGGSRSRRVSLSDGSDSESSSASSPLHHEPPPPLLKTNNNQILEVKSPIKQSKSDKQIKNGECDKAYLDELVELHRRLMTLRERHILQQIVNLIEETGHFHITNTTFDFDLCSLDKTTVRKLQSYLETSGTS
# Beta apoptosis: blocks beta cell apoptosis; INS-1E cytokine-induced death, ATP luminescence, 48 h; percent of positive-control rescue, neutral wells zero; protection from apoptosis, % (test concentration not listed); 0.8% of 300,000 active;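 active = all replicates at 75% or more, or half of them and the mean; inconclusive = half reach 75% but not the mean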;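 note: 0% = cytokine-treated negative control wells and 100% = positive control rescue; higher means more ATP so stronger rescue from cytokine killing; wells of about 40 µL received 100 nL stock; the first replicate is given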
# Calb FLC: C. albicans growth modulation with fluconazole. C. albicans CaCi-2 (fluconazole-resistant clinical isolate) + fluconazole, Alamar Blue growth, 48 h. growth inhibition, % (test concentration not listed). 0.57% of 300,000 active;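 active = most replicates above 75%; inconclusive = exactly half above 75%; inactive = most below 75%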;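 note: all wells also contain fluconazole at 8 µg/ml as a sub-toxic cotreatment; 0% = median of DMSO wells and 100% = median of geldanamycin control wells; wells of about 8 µL received 7.5 nL stock; the first replicate is given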
# LANA-H2B inh: blocks KSHV LANA binding to histone H2A/H2B; cell-free LANA-H2A/H2B peptide, fluorescence polarization; inhibition, % (concentration not given with the values); 0.6% of 320,000 active; in the data active = inhibition mostly above about 10%, no sharp cut-off; inactive = mostly below about 6.7%;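 note: stock transfer was 7.5 nL into about 10 µL; 0% = median of vehicle wells and 100% = median of positive control wells; one replicate is shown; the record names a cut of 25% in any replicate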
# A1 inh: inhibitors of the anti-apoptotic protein A1, read as caspase activation; caspase activation, % (no concentration beside the values); MEF A1-2A-BIM cells, Caspase-Glo 3/7 luminescence, 3 h; percent of clofoctol response, vehicle zero; 0.066% of 330,000 active; AID 2462;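 active = over half of replicate activation scores above 10%, or exactly half above 10 with the replicate mean above 10; inconclusive = replicate mean below 10 yet half the replicates above 10; inactive = over half of replicates below 10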;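 note: wells of about 30 µL received 50 nL stock; many hits fall short of the cut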
# RanGTP-Impb inh: disruptors of Ran-importin-beta complex formation – biochemical, FRET, CFP-Ran, YFP-importin-beta, homogeneous, primary screen; inhibition, % (concentration not given with the values); AID 2216; 1.1% of 300,000 active; cell-free CFP-Ran/YFP-importin-beta FRET ratio;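 active = most replicates above 15%; inconclusive = exactly half above 15%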;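 note: 0% = DMSO wells and 100% = Ran loaded with GDP instead of GTP; wells of about 40 µL received 100 nL stock; the first replicate is given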
# * hit, by the source's call; u = inconclusive; x = not tested or not shown.
SMILES,Vif TR-FRET,T cruzi inh,MLL AF4-AF9 inh,Beta apoptosis,Calb FLC,LANA-H2B inh,A1 inh,RanGTP-Impb inh
Cc1ccccc1NC(=O)N1CCCC(c2nc(-c3ccc(C(C)C)cc3)no2)C1 (stereo not given),6.6%,41.9,-2.6,2.7,-8.1,-5.0,0.0,-2.6
Nc1ncc(Br)cc1S(=O)(=O)NCCC(=O)NCCc1ccccc1,27.6%,15.4,-3.8,-13.9,0.8,-4.6,0.3,-0.7
CCOC(=O)C1(Cc2ccc(Cl)cc2)CCN(C(=O)c2cc(C)nc(C)n2)CC1,3.1%,-14.1,1.1,6.0,-10.6,-7.5,0.5,8.3
CN1CCN(c2ccc([N+](=O)[O-])cc2S(=O)(=O)N2CCOCC2)CC1,6.0%,5.5,x,0.2,-2.0,2.8,-0.3,-0.8
COc1ccc(CCNC(=O)c2cc(-c3cc(C)cc(C)c3O)n[nH]2)cc1OC,-13.8%,-0.7,x,3.0,10.3,-1.1,0.1,5.0
COc1cccc(CNc2ncnc3ccc(-c4c(C)noc4C)cc23)c1,x,x,0.3,-14.9,x,0.0,0.5,x
N#Cc1c(N)sc(=S)c2c1CCCC2,u,-37.2,x,-6.4,7.6,-13.2,-0.4,-22.2
CC(C)(C)OC(=O)NCCc1nnc(SCC(=O)c2ccc(Cl)cc2)o1,-0.2%,-4.8,x,-1.5,7.2,-2.2,-0.4,-4.9
CC(=O)Nc1ccc(NC(=O)c2c(C)nn(Cc3ccccc3Cl)c2C)cc1,0.8%,-10.6,-0.4,4.3,-1.4,6.3,0.3,-1.9
Cc1ccc(C)c(S(=O)(=O)N2CCN(C(=O)[C@H](C)N3C(=O)C4CC=CCC4C3=O)CC2)c1 (stereo not given in full),-13.0%,x,-0.3,-5.9,x,x,0.8,x
COc1ccc(OC)c(N/C=C/C(=O)c2ccccc2)c1,x,-9.8,4.5,14.7,-2.1,0.0,-7.3,8.1
C/C(=N\NC(=O)c1ccc([N+](=O)[O-])cc1Cl)c1ccccc1,x,u,3.3,0.8,-16.6,4.0,-0.6,-6.2
CCOC(=O)N1CCC(NC(=O)C2CCN(S(=O)(=O)c3cnc[nH]3)CC2)CC1,12.9%,-4.3,x,-0.6,-0.9,0.9,0.0,0.5
C[N+]1(CC(O)COc2ccccc2)CCN(C(=O)c2ccc([N+](=O)[O-])cc2)CC1 (stereo not given),-6.3%,-7.1,x,-3.2,4.9,-0.8,-0.1,0.7
O=C(Nc1ccc(OCC(=O)N2CCOCC2)cc1)Nc1cccc2ccccc12,0.8%,-15.3,-0.8,7.1,-1.4,-1.0,0.3,-3.9
Cc1ccc(C(=O)Nc2cc3ccccc3oc2=O)cc1,-6.5%,-64.3,-3.6,30.5,3.1,0.3,-9.1,4.9
Cc1ccc(N2N=C(C(=O)O)CCC2=O)cc1Cl,-9.0%,5.8,-4.9,-4.9,2.9,2.6,0.6,1.2
COc1ccc(C(=O)NCc2cccnc2)cc1OC,72.7%,6.5,x,-0.5,0.9,-0.9,-0.1,-0.7
Cc1cc(SCC(=O)c2ccccc2)n2nc(C)nc2n1,28.5%,-1.4,-0.6,-13.0,-1.0,5.7,0.9,-1.1
CCC(=O)N1CCc2cc(S(=O)(=O)CCC(=O)NCCC3=CCCCC3)ccc21,-0.1%,-3.1,x,-1.9,0.1,0.8,-0.5,3.2
COc1ccc(C(CNC(=O)c2cc(C)on2)N(C)C)cc1 (stereo not given),x,-12.1,-1.1,-5.2,-2.3,0.7,-0.6,-0.1
COC(=O)c1ccccc1OC(=O)c1cccnc1,14.2%,-10.3,11.0,-2.1,-1.3,1.8,0.7,1.3
O=C(O)c1ccc(CNCc2ccc(Cl)cc2)cc1,24.5%,-6.8,1.8,0.0,30.1,2.9,0.0,-6.3
Nc1nc(NS(=O)(=O)c2ccc(Cl)cc2)nn1-c1ccccc1,-16.3%,-0.3,-1.0,-5.0,2.7,-0.4,1.2,2.2
COc1ccc(-n2nc(C(=O)NCC(=O)N3CCN(c4ccccn4)CC3)c3ccccc3c2=O)c(OC)c1,x,-0.6,5.0,-3.5,8.0,0.1,0.1,1.2
Cc1onc(-c2ccccc2Cl)c1C(O)c1ccc(F)cc1 (stereo not given),-0.5%,7.7,3.4,-2.4,-9.9,-1.9,0.8,2.6
CC(=O)NS(=O)(=O)c1ccc(NC(=S)NC(=O)CC(C)C)cc1,-7.3%,-6.9,-3.1,2.7,7.5,-1.1,-0.9,0.9
O=C(NCc1cccnc1)C1CC(=O)N(c2ccc(F)cc2)C1 (stereo not given),2.3%,-6.8,x,-2.6,16.3,6.6,0.3,-0.6
COc1cc(C(=S)N2CCCC2)cc(Cl)c1OCC(=O)Nc1ccc(C)cc1C,u,-0.2,x,-5.4,1.9,1.6,-0.3,2.2
Cc1ccc(NC(=O)c2cc(C)nc3ccccc23)cc1,x,-17.4,-9.9,-0.4,-3.7,3.6,0.5,-2.9
O=C(Nc1cccc(Cl)c1)c1cc(S(=O)(=O)N2CCCCC2)c[nH]1,x,-20.2,0.6,-0.7,-1.5,0.4,-0.2,-0.4
CCCC(=O)Nc1c(-c2cccc(OC)c2)c(=O)c2ccccc2n1C,-0.4%,-7.2,1.3,-2.2,-1.2,-3.0,-0.7,-1.0
COCCCn1c(=NC(=O)c2ccccc2)c(C#N)cc2c(=O)n3cccc(C)c3nc21,10.8%,6.4,-1.6,11.5,11.2,27.4*,-1.0,49.4*
CC1CCCN(CCOCCOc2ccc(Cl)cc2Br)C1 (stereo not given),4.3%,u,x,4.6,4.9,6.3,0.0,0.9
Cc1cc(C)n2c(SC/C(O)=C(\C#N)c3nc4ccccc4[nH]3)nnc2n1,u,-10.4,x,0.0,-7.2,-1.0,0.1,u
O=C(NCc1ccccn1)c1cc2n(n1)C(C(F)(F)F)CC(c1ccco1)N2 (stereo not given),27.7%,14.2,x,-0.3,-1.6,-9.5,-0.3,3.5
CCn1c(=O)cc(OCC(=O)NCCC(C)C)c2ccccc21,12.4%,-4.7,-0.1,-5.4,-13.0,-1.8,0.9,5.4
CC(O)CNCCOc1cccc(Oc2ccccc2)c1 (stereo not given),10.8%,14.4,-2.9,2.8,-11.0,0.5,1.1,-0.1
Cc1cccc(NC(=O)/C(=C\c2ccco2)NC(=O)c2cccs2)c1,10.8%,3.6,x,-5.3,15.3,0.7,0.2,3.4
Cc1cc(C)nc(N(C#N)CC(=O)N(c2ccccc2)C(C)C)n1,-2.5%,12.8,x,-3.4,22.6,x,0.1,4.8
CC1CCCCN1CCn1cnc2c([nH]c3ccccc32)c1=O (stereo not given),-0.4%,2.3,1.1,1.2,6.0,1.8,0.3,2.0
CCOC(=O)c1c(NC(=O)CN2C(=O)C(=O)N(CC(C)C)C2=O)sc(C)c1CC,-5.6%,2.9,-16.4,-1.3,-1.7,2.4,0.3,0.5
CCOC(=O)c1cc(NC(=O)NC2CCCCC2)c(C)nc1C,x,-2.9,-2.0,-4.5,3.6,2.7,0.1,-1.2
Cc1c(C(=O)NCCC2=CCCCC2)oc2ccc(S(=O)(=O)N3CCC4(CC3)OCCO4)cc12,0.2%,18.8,x,9.8,-5.8,4.8,0.2,0.4
CC(=O)Nc1ccc(OCC(=O)Nc2ccc(Cl)c(S(=O)(=O)N3CCOCC3)c2)cc1,x,x,6.0,3.5,x,-3.9,0.3,x
O=C(OCc1cccc([N+](=O)[O-])c1)c1cc(=O)[nH]c2ccccc12,9.2%,-3.6,x,-1.2,3.4,-3.5,-0.2,-0.3
COc1ccccc1CC(NC(C)=O)C(=O)NC1CCN(C(=O)Nc2ccccc2C)CC1 (stereo not given),-1.8%,-18.4,-0.9,0.6,-2.5,-2.3,0.5,7.5
CCCCCn1c(C(C)NC(=O)CCC)nc2ccccc21 (stereo not given),u,-0.5,4.5,2.1,8.0,-1.8,-0.2,-3.2
CN1/C(=C/C(=S)NC(=O)C2CCC2)C(C)(C)c2ccccc21,4.0%,5.6,7.8,59.5,-5.4,-2.0,0.6,-0.1
COc1cc2nc(CN3C(=O)c4ccccc4C3=O)oc(=O)c2cc1OC,2.5%,1.1,x,-4.5,x,-6.1,1.7,1.1
COc1ccc(NS(=O)(=O)c2ccc(NC(C)=O)cc2)cc1OC,-0.1%,-26.8,x,x,-2.9,2.2,-0.1,3.0
Cc1ccc(OCC(=O)NNC(=O)c2ccco2)c(C)c1,x,1.6,0.5,-9.1,2.7,-3.1,0.0,-0.4
CN(C)Cc1c(C(=O)N/N=C/c2cccc(OCc3ccccc3)c2)nnn1-c1nonc1N,19.4%,4.9,1.4,-7.1,10.2,5.3,-0.4,4.9
O=C(Nc1ccccc1)c1nccn1Cc1ccc(F)cc1,-1.6%,3.8,-2.3,0.2,-13.7,3.0,-1.4,3.5
Cc1ccccc1OCC(=O)OCC(=O)NCc1cccs1,x,-2.3,x,-1.3,5.3,-3.1,-0.2,u
COc1cc(/C=C2\SC(=S)N(NS(=O)(=O)c3ccc(C)cc3)C2=O)cc(OC)c1OC,4.5%,2.0,4.7,-0.3,37.6,5.9,0.0,1.0
Cc1cccc(-c2noc(Cc3ccccc3)n2)c1,8.6%,-5.6,x,-4.8,-6.5,-5.0,-3.1,-2.5
CC(=O)N/C(=C\c1ccccc1)C(=O)OCC(=O)Nc1ccc(C)c(S(=O)(=O)N(C)C)c1,x,x,2.9,-9.2,x,4.2,-0.6,x
CCN1CCN(C(=O)c2cc(COc3ccc(C(C)=O)cc3OC)on2)CC1,x,10.3,1.7,-4.9,-1.0,-0.3,-1.5,-2.1
COc1cc(C(=O)NCC(=O)N/N=C(/C)c2cccs2)cc(OC)c1OC,x,3.3,x,-0.9,9.6,4.6,-0.1,-4.6

# (continued)
SMILES,Vif TR-FRET,T cruzi inh,MLL AF4-AF9 inh,Beta apoptosis,Calb FLC,LANA-H2B inh,A1 inh,RanGTP-Impb inh
Cc1ccc(Nc2c(-c3ccccn3)nc3cccc(C)n23)cc1,-6.0%,58.8*,u,116.9*,u,-5.1,0.3,u
COc1ccccc1-n1cnnc1SCC(=O)Nc1cccc(S(=O)(=O)N2CCCCC2)c1,5.9%,0.3,2.9,2.0,-14.6,-9.8,0.1,-1.8
COc1ccccc1CNS(=O)(=O)c1cc2c3c(c1)CCC(=O)N3CCC2,-2.1%,-10.2,-3.3,6.6,-5.6,0.8,0.5,5.4
CC(=O)c1ccc(N2CCN(S(=O)(=O)c3cn(C)cn3)CC2)cc1,x,-8.5,1.1,0.2,-3.3,8.8*,0.0,1.6
O=C(CSc1ccc2nnc(-c3ccccn3)n2n1)Nc1ccc2c(c1)OCO2,5.3%,5.1,4.6,-0.9,-1.8,-2.8,0.0,7.0
C=C[C@@H]1c2c(F)cccc2N(S(=O)(=O)c2ccc(C)cc2)[C@H](c2ccc(C(=O)OC)cc2)C1(C#N)C#N,x,x,-15.0,4.6,x,-0.9,0.2,x
O=C(Nc1cccc(Cl)c1)Nc1nnc(CC2=CCCCC2)s1,0.8%,19.1,0.9,35.2,5.2,-0.1,0.3,-1.5
CCNC(=O)CP(=O)(c1ccccc1)c1ccccc1,4.8%,-6.2,x,-5.4,u,1.1,0.4,-0.6
O=C(CSc1n[nH]c(-c2ccco2)n1)Nc1ccc(F)cc1,x,-2.4,1.2,1.4,10.2,-1.4,-0.5,0.6
CCc1ccc(C2C(C#N)=C(N)N(N(C)C)C3=C2C(=O)CCC3)s1 (stereo not given),-6.2%,-8.3,x,-4.4,7.0,0.1,0.4,u
CC(C)CCN1CCN(Cc2cccc3cccnc23)CC1CCO (stereo not given),x,16.3,-1.2,-13.4,-37.9,-2.4,0.2,0.9
